Source: PubChem BioAssay
Bead autofluor: counter-screen for toxin protease inhibitors: compound fluorescence | 360,000 compounds, 3.1% hits | compound autofluorescence counterscreen, microsphere flow cytometry; active compounds read high | AID 624483 | fluorescence intensity (test concentration not listed);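 active = at least 3 SD above the mean of all compounds, about 16000 in these data; inconclusive = too few beads counted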;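 also: 100 nL of 1 mM stock went into each well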
PrP UTR inh: inhibition of PrP 5' UTR reporter expression | cell-based PrP 5' UTR mRNA reporter, plate reader | inhibition, % (no concentration beside the values) | 340,000 compounds, 0.35% hits;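 active = every replicate at 50% or more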;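 also: 0 = median of the neutral control wells; tested in H4 reporter cells; numbers are from one replicate; inactives centre near -14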
ugtP null kill: growth inhibition of S. aureus ugtP deletion strain | 330,000 compounds, 0.54% hits | AID 1259309 | S. aureus RN4220 ugtP deletion, OD600 growth, 16 h; some inactives read as strong as hits | growth inhibition, % (concentration not given with the values);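 active = z-score under -3 and OD600 up to 0.15 on both plates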;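 also: plate controls were untreated wells for no effect and antibiotic for full effect; wells of about 80 µL received 100 nL stock; the first replicate is given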
RN4220 kill: kills Staphylococcus aureus RN4220. inhibition, % (concentration not given with the values). 330,000 compounds, 0.33% hits. S. aureus RN4220 growth, OD600, 16 h. AID 1259311;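 active = z-score of -3 or lower and OD600 up to 0.18 on both plates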;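 also: plate controls were untreated cells for no effect and reference antibiotic for full effect; stock transfer was 100 nL into about 80 µL; one replicate is shown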
Mtb hypoxia inh: reduces hypoxia-regulated biosensor signal in M. tuberculosis; M. tuberculosis hypoxia-regulated fluorescent reporter, fluorescence; fluorescence inhibition, % (concentration not given with the values); AID 1159583; 300,000 compounds, 0.1% hits;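 active = 35 to 45% if threefold the growth effect, above 45% if 1.5-fold the growth effect; inactive = the rest, general growth blockers included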;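 also: wells of about 50 µL received 100 nL stock; 0% = vehicle wells and 100% = reference inhibitor wells; whole bacteria with a GFP reporter of the hypoxia response; strong numbers were not always called active; many hits fall short of the cut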
BJeLR lethal: BJeLR cell viability loss | inhibition, % (test concentration not listed) | BJeLR (HRASV12) viability, CellTiter-Glo ATP luminescence, 48 h; reference of the scale not given here | AID 1554 | 300,000 compounds, 0.17% hits;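 active = replicate mean above 50%; inconclusive = above 50% but judged a plate artefact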;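 also: 50 nL library stock added to about 25 µL; numbers are from one replicate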
Mtb hypoxia inh growth: second read-out of Mtb hypoxia inh, no call of its own (marks repeat the call); growth inhibition, %; measured here: M. tuberculosis growth (absorbance);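 0% = vehicle and 100% = reference antibiotic; read after six days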
* marks the source's active call; other numbers are inactive results; ? = inconclusive; / = not tested or not shown. Hits appear at their usual frequency; any-hit rate near 3.9%.

Molecule	Bead autofluor	PrP UTR inh	ugtP null kill	RN4220 kill	Mtb hypoxia inh	Mtb hypoxia inh growth	BJeLR lethal
COc1ccc2[nH]c3c(c2c1)CCNC3c1ccc([N+](=O)[O-])o1 (stereo not drawn)	2996	-7	/	/	/	/	6
O=C(CSc1nnc(-c2ccc(F)cc2)o1)Nc1ccc(S(=O)(=O)N2CCCC2)cc1	5715	-8	-11	5.3	4	-1	3
Cc1ccc(NCC(=O)N/N=C/c2c[nH]c3ccccc23)cc1	2335	-12	/	/	/	/	-6
Cc1cccc(NS(=O)(=O)c2cc([N+](=O)[O-])ccc2C)n1	5277	11	1	6.4	0	6	-3
O=C(CSc1nc(=O)n2ccccc2n1)NCc1ccccc1	/	-16	6	0.3	2	-6	0
CCOC(=O)C(=O)Nc1ccc(S(=O)(=O)Nc2ncccn2)cc1	7311	/	9	2.4	7	2	-7
Cn1cnc([N+](=O)[O-])c1Sc1ccc([N+](=O)[O-])cc1	3154	-1	14	-6.8	24	26	5
CN(C)CCCNc1oc(/C=C/c2cccs2)nc1S(=O)(=O)c1ccccc1	7135	-2	8	-0.2	5	-4	4
CC(C)N(Cc1cnn(C)c1)C(=O)C1CCC(=O)N(CCc2cccc(F)c2)C1 (stereo not drawn)	4191	-11	2	-0.2	-6	-8	8
CCCCCCCCCCCCCCCC(=O)NCCc1c[nH]c2ccccc12	4130	7	12	1.4	/	/	6
COc1ccc(OC)c(C2CC(=O)Nc3n[nH]c(-c4ccccc4)c32)c1 (stereo not drawn)	4029	-9	1	32	-13	-7	3
C[C@H]1CN=C(Nc2ccccc2)N1CC1CCC1	4323	-26	/	/	/	/	0
Cc1cccc(NC(=O)CCC(=O)N/N=C/c2ccco2)c1	2676	-14	/	/	/	/	-2
CCOC(=O)c1cnc2cc(-c3ccc(Cl)cc3)nn2c1N	9696	-162	-4	9.8	1	4	14
C=CCNC(=O)CC(C)C(CCCCC)C(=O)O (stereo not drawn)	2823	-26	13	6.9	12	12	5
COC(=O)Nc1c(-c2ccccc2)nc2ccc(Cl)cn12	3519	-27	2	-2.6	-2	-4	-11
COc1cccc(N2CCN(S(=O)(=O)c3ccc4c(c3)CC(C)N4C(=O)C3CC3)CC2)c1 (stereo not drawn)	/	-15	3	0.5	0	0	-13
CN(c1ccccc1)c1ccc(/C=C/[N+](=O)[O-])cc1	8391	2	/	/	/	/	-3
CSc1ccccc1NC(=O)NCCCl	4648	-10	1	-0.2	-1	8	2
COc1ccc2sc(-c3ccccc3OC)c(-c3ccc(OC)nc3)c2c1	4284	-9	72	-16	-5	10	/
CN(C)C(=O)COC(=O)c1ccc(S(=O)(=O)NCc2ccco2)cc1	5128	-6	-11	2.3	-5	-9	15
Cc1cc(C)nc(SCC(=O)Nc2ccc(S(=O)(=O)N3CCCCC3)cc2)n1	16364*	-4	10	8.7	8	7	-10
Cc1ccc(C(=O)Nc2ccc(C(=O)N3CCCCC3)cc2)o1	?	-33	7	0.8	7	-12	24
COc1ccc(CNC(=S)NNC(=O)c2cc3ccccc3o2)cc1	3319	-25	-5	7.5	-6	-8	0
CCN1C(=O)[C@@H]2[C@@H](c3ccc(SC4CCCCC4)cc3)N3CCCC[C@@]3(C(=O)OC)[C@@H]2C1=O	16473*	-21	/	/	/	/	6
COc1ccc(C2CC(=O)C=C(c3ccccc3Oc3ccccc3)C2)cc1 (stereo not drawn)	/	/	10	-0.1	3	0	/
CC(=O)c1cc(N2CCOCC2)ccc1[N+](=O)[O-]	2082	-24	27	9.8	2	8	5
S=C(NCc1ccco1)NN=Cc1cccnc1	/	/	15	7.1	4	10	/
O=C(O)c1ccc(N2C(=O)/C(=C/c3ccc(-c4ccc([N+](=O)[O-])cc4)o3)C=C2c2ccccc2)cc1	3954	-20	/	/	/	/	8
CCOC(=O)CC(=O)CSCC(=O)Nc1ccc(C)cc1	22826*	-21	8	13	11	5	0
Cc1nn(-c2ccccc2)c(C)c1C(=O)OCC(=O)N1CC(=O)Nc2ccccc21	3350	-3	0	-0.5	0	3	6
CC1C(=O)Nc2ccccc2N1C(=O)c1ccccc1 (stereo not drawn)	5032	-18	6	5.1	7	-2	6
COc1cc(/C=N/NC(=O)c2cccs2)ccc1OCc1ccccc1	15932	-12	/	/	/	/	3
Cc1cccc(C)c1NC(=O)CSc1nnc(C)n1-c1ccccc1	4365	-14	0	-0.9	/	/	0
Cc1nc(Nc2ccccc2C)c2cnn(C)c2n1	2935	4	10	4.3	3	7	/
COc1ccccc1-c1cc(C(=O)NCc2ccccc2)no1	21016*	-20	1	1.4	11	5	10

Arranged by length of the SMILES (low to high): three of the compounds above
Molecule	Bead autofluor	PrP UTR inh	ugtP null kill	RN4220 kill	Mtb hypoxia inh	Mtb hypoxia inh growth	BJeLR lethal
CCOC(=O)CC(=O)CSCC(=O)Nc1ccc(C)cc1	22826*	-21	8	13	11	5	0
Cc1cccc(C)c1NC(=O)CSc1nnc(C)n1-c1ccccc1	4365	-14	0	-0.9	/	/	0
CCN1C(=O)[C@@H]2[C@@H](c3ccc(SC4CCCCC4)cc3)N3CCCC[C@@]3(C(=O)OC)[C@@H]2C1=O	16473*	-21	/	/	/	/	6

Later entries
Molecule	Bead autofluor	PrP UTR inh	ugtP null kill	RN4220 kill	Mtb hypoxia inh	Mtb hypoxia inh growth	BJeLR lethal
CCc1noc(C)c1C(=O)Nc1ccc(-c2nnc3n2CCCCC3)cc1	5312	-1	3	2.6	2	-1	-4
Cc1ccc(-n2c(SCC(=O)NCC3CCCO3)nc3c(c2=O)SCC3)cc1 (stereo not drawn)	8173	-21	8	0.8	9	14	/
CN(Cc1ccccc1)C(=O)CSc1nc2ccccc2[nH]1	3481	-34	-1	2.8	20	5	-7
COc1cc(Cl)ccc1OCc1cc(C(=O)N2CCCCCC2)no1	5277	-27	2	2.7	9	7	8
C/C(CC(=O)Nc1ccc2c(c1)OCO2)=N\NC(=O)C(c1ccccc1)c1ccccc1	2576	-5	/	/	/	/	-8
COc1ccc(-c2cc(C(=O)N3CCN(c4ccccc4O)CC3)c3ccccc3n2)cc1	6350	-39	0	1.2	2	10	/
Cc1cccc(-c2cc3nc4c(c(N5CCOCC5)n3n2)CCCC4)c1	8275	-48	-10	6.9	-1	-2	-17
Cc1nnc(-c2ccc(Oc3ccc(C)c(C)c3)c([N+](=O)[O-])c2)o1	2447	-34	-10	9.0	2	13	-2
C=CCOc1cccc(C2C(C(=O)c3ccco3)=C(O)C(=O)N2Cc2ccncc2)c1 (stereo not drawn)	4638	-17	12	6.0	/	/	3
O=C1c2cccnc2C(Nc2ccc(Br)cc2)N1Cc1cccs1 (stereo not drawn)	2155	-1	-9	6.0	8	16	6
COc1ccc(-n2c(CNC(=O)c3cccs3)n[nH]c2=S)cc1	4852	-5	-1	3.3	13	10	-3
CC(C)CCN(N=O)C(Cc1ccccc1)CN(N=O)C(Cc1ccccc1)CN(C)N=O (stereo not drawn)	/	/	12	8.4	17	0	/
Cc1cc2c(cc1C)NC(c1nc3ccccc3[nH]1)C1=C(CC(C)(C)CC1=O)N2 (stereo not drawn)	2569	-10	-7	-8.5	0	15	-2
O=C(COc1ncnc2c1cnn2-c1ccccc1)Nc1ccc(S(=O)(=O)N2CCCCC2)cc1	2139	-19	-1	-0.2	14	8	9
O=c1cc(N=Cc2coc3cc(Br)ccc3c2=O)[nH]c(=S)[nH]1	/	/	11	13	19	-5	/
Cc1nc2ccccc2n1CCc1nc2c3ccccc3nc(SCC(=O)NCc3ccco3)n2n1	4213	8	3	0.9	1	10	2
Cc1ccc(/C=C/C(=O)N2CCN(c3cccc(C(F)(F)F)c3)CC2)cc1	2390	-16	-7	5.3	13	2	6
O=[N+]([O-])c1nn(-c2ccc3c(c2)OCCO3)n(O)c1=NCCCO	4117	-26	75	59	20	14	-2
O=C(Nc1ccc(Cl)cc1Cl)c1n[nH]c(Cn2cncn2)n1	20568*	-17	-5	10	8	10	3
Cc1ccc(OCCCCn2ccnc2)c(Cl)c1	19999*	-36	4	3.8	16	12	11
C/C(CC(=O)Nc1ccc(Br)cc1)=N\NC(=O)Cc1csc(N)n1	3378	-16	/	/	/	/	8
N#CC(OC(=O)c1ccccc1)c1cccc([N+](=O)[O-])c1 (stereo not drawn)	2986	-6	6	4.8	11	11	/
CN(CC(=O)Nc1ccc(Cl)c(C(F)(F)F)c1)C(=O)CCNC(=O)c1ccco1	6377	3	-4	3.0	9	8	1
CN1C(=O)c2ccccc2Sc2ccc(NC(=O)N3CCOCC3)cc21	4294	-4	-2	6.8	9	0	5
CN1CCN(c2ccccc2NC(=O)c2ccc(Br)o2)CC1	3588	-22	-2	7.5	/	/	-4
Cc1cc(=O)oc2cc(OCC#N)ccc12	4833	9	10	4.5	/	/	-9
COc1cccc2c(=O)c3ccoc3n(C)c12	3965	-14	1	2.3	/	/	14
Cn1cccc1C(=O)NNC(=O)COc1ccc(C#N)cc1	3794	-13	9	7.5	11	-1	/
Cc1ccccc1Cn1c(-c2cncs2)nc2ccccc21	2991	-3	-5	1.8	8	3	-3
CN(C(=O)c1ccc(N2CCCCC2)c([N+](=O)[O-])c1)C1(C)CCS(=O)(=O)C1 (stereo not drawn)	4211	0	0	-1.5	1	-2	4
O=C(CNC(=O)c1ccco1)NC1CCCCCC1	?	-19	10	4.7	9	0	-6
COC(=O)c1cc(S(=O)(=O)NCCc2ccc(C)cc2)c[nH]1	5713	-20	8	0.6	13	1	12
COCCCN(C(C)=O)c1nc(-c2ccccc2)cs1	21845*	-46	-4	-2.0	-9	-2	0
CC(=O)Nc1ccc(S(=O)(=O)Nc2cccc(S(=O)(=O)N(C)c3ccccc3)c2)cc1	5240	-9	3	5.9	1	0	/
O=C(CCl)NC(Cc1ccccc1)c1ccccc1 (stereo not drawn)	4740	-8	5	4.4	24	22	-5
CC(=O)Nc1ccc(NC(=O)CC(C)=NNC(N)=S)cc1	/	/	7	8.3	-1	1	/
COc1ccc(NC(=O)C2CCN(C(=O)Nc3ccc(C)cc3)CC2)cc1OC	3891	-25	14	1.2	7	8	-16
O=C(Nc1ccc(F)cc1F)c1ccc(-n2cccn2)nc1	4024	-15	3	13	14	21	-2
CC(=O)NC(=S)Nc1ccc(S(=O)(=O)N2CCOCC2)cc1	4591	-24	-3	4.8	10	10	4
COc1ccc(-c2cc3cc4c(cc3cn2)OCO4)cc1	3884	-7	-10	13	12	8	/
CCOC(=O)c1c(C)nc2cc(C)cc(C)n12	4911	-13	2	5.8	/	/	-12
Cc1ccc(SCc2cc(-c3ccc(Cl)cc3)no2)cc1	2717	6	6	2.8	/	/	4
COC(CNC(=S)Nc1ccc([N+](=O)[O-])cc1)OC	2078	-10	-1	3.1	-1	8	-10
O=C(Nc1nnc(-c2ccc(Cl)cc2)o1)Nc1ccccc1Cl	3214	-19	0	68	2	1	-3
COc1ccc2c(c1OC)C(=O)N(c1cccc(C(F)(F)F)c1)C2	8617	-149	9	8.1	7	6	3
COc1cccc(N2CCN(Cc3cccc(Cl)c3)CC2)c1	24340*	-30	-3	7.1	14	4	15
O=C(CCNC(=O)c1ccco1)Nc1ccc(SC(F)F)cc1	4320	-10	4	0.0	8	9	2
COC(=O)CN1C(=O)[C@H]2[C@@H](c3ccc(C)o3)N3C(=O)CN(Cc4ccccc4)C(=O)[C@@]3(C)[C@H]2C1=O	2762	7	/	/	/	/	-8
Cc1cccc(NC(=O)N2CCC(n3nnc4cc(C)ccc43)CC2)c1	3977	-17	7	5.8	10	9	2
COc1ccc(C=NNc2nc(C)c([N+](=O)[O-])c(N(C)c3ccccc3)n2)cc1OC	/	/	1	6.3	7	3	/
O=C(CN(C(=O)CCC(=O)Nc1nccs1)c1ccc(F)cc1)NCc1ccco1	3672	-15	-9	-0.4	/	/	-3
